GALR2 agonist = GALR2 receptor agonists, primary screen, cell-based; GALR2-expressing cells, agonist activation read-out; activation, %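 (tested at 5 µM)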; hit rate 0.48% among 140,000;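 active means above mean plus 3 SD of all compounds, about 5% in these data, not always enough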;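 further: 0% = vehicle buffer wells and 100% = reference agonist at full effect; tested in CHO reporter cells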
Target sequence (O43603 whole entry, looked up): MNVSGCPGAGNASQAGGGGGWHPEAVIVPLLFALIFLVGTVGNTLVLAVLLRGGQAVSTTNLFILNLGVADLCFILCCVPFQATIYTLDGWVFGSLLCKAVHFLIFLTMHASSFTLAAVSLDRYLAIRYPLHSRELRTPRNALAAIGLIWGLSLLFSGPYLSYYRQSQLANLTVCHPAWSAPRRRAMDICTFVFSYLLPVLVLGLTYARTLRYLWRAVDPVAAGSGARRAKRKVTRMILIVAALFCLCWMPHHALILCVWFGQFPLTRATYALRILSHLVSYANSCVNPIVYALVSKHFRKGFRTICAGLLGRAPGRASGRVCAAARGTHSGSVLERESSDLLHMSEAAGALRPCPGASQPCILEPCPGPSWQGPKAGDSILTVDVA
Insulin prom inh = inhibitors of insulin promoter-driven GFP, primary screen, imaging, TRM-6 cells (human fetal islet line), eGFP reporter, cell count | inhibition, % at 2 µM | reporter expression induced with tamoxifen | AID 1273, 2008 | hit rate 0.9% among 130,000;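 active means inhibition above the mean plus 3 SD, with well images judged a real hit on visual review, cut at about 60% in these data, passing the limit was not always enough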
HSV augment = enhancers of HSV replication in host cells, fold increase, host cell viability | HSV replication augmentation in cells | maximum fold increase | hit rate 0.005% among 220,000 | AID 1956, 2009;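 active means peak rise of 1.5-fold or more in the series; tested in PC3 cells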;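 further: first round at 10 µM; read as green reporter fluorescence; hits show the peak of a series up to 25 µM; 1 = signal of infected wells without compound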
PKD1 inh = inhibitors of human PKD1 kinase, biochemical, fluorescence polarization; Serine/threonine-protein kinase D1 (Homo sapiens), Q15139; PKD1 kinase fluorescence polarization assay; inhibition, %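 (about 10 µM by stock and volumes)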; hit rate 0.056% among 200,000; AID 797, 2007;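 active means inhibition of 50% or more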;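 further: controls were vehicle for no effect and a reference inhibitor for full effect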
RGS16-Gao = modulators of RGS16 binding to Galphao, primary screen, biochemical, human proteins, multiplexed bead flow cytometry. binding response (% of control), % at 10 µM. AID 1441, 2008. bead-based flow cytometry RGS16-Galphao binding, fluorescence; actives lie on both sides. hit rate 0.38% among 220,000;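 active means below 25% or above 175%, edge rows of some plates excepted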;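 further: Galphao activated by GDP with aluminum fluoride before binding; 100% = wells without compound and 0% = beads without RGS; some results beyond the cut were filed as inactive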
Target sequence (O15492 whole entry, looked up): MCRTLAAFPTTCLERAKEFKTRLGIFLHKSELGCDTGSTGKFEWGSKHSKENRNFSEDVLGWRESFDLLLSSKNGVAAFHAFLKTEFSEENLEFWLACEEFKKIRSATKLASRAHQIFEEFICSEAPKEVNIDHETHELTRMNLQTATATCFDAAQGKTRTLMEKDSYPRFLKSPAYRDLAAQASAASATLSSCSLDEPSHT
Target sequence (P09471 whole entry, looked up): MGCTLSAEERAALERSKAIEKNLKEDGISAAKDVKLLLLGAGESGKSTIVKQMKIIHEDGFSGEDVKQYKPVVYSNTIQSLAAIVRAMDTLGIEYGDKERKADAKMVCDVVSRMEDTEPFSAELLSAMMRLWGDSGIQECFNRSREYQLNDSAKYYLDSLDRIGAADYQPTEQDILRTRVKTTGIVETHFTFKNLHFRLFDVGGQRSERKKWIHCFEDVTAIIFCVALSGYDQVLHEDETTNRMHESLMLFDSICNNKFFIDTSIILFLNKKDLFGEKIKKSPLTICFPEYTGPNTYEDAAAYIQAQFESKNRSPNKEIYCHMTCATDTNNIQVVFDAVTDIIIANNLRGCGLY
Insulin prom inh cell count = further read-out of Insulin prom inh, marked with its call; normalized cell count, %; measured here: cell count, toxicity; reference of the scale not given here;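 cells exposed to compound for 48 h; stained nuclei by imaging scaled within each plate; lower means fewer cells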
HSV augment primary fold = also measured in HSV augment; calls as there; fold increase; compound at 10 µM; measured here: primary screen fold increase 10 uM; tested in PC3 cells;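 GFP signal in the first replicate; 1 = infected wells without compound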
The depositor's hits bear a star; i = inactive; nt = not tested or not shown. Hits appear at their usual frequency; about 1.2% have a hit in one of these screens.

smiles	GALR2 agonist	Insulin prom inh	Insulin prom inh cell count	HSV augment	HSV augment primary fold	PKD1 inh	RGS16-Gao
Cc1ccc(C)n1-c1cccc(S(=O)(=O)N2CCOCC2)c1	nt	30	91	i	0.9	6	115
O=C(NCc1ccco1)c1ccc(COc2cccc3ccccc23)cc1	-0.9	nt	nt	i	1.1	-8	103
O=C(CN1CCN(C(=O)c2ccccc2)CC1)Nc1ccc(Br)cn1	-1.6	nt	nt	i	0.97	1	98
NS(=O)(=O)c1ccc(NC(=O)COC(=O)CCC2CCCC2)cc1	nt	-26	132	i	1	-2	98
Cc1c(Cl)cccc1NC(=O)COC(=O)c1c2c(nc3ccccc13)CCN(Cc1ccccc1)C2	-0.5	-32	117	i	1.2	-6	139
CC(C)c1cc(C(C)C)c(S(=O)(=O)NNC(=O)c2ccncc2)c(C(C)C)c1	-0.3	37	135	i	0.88	-14	106
O=C(NCCCN1CCOCC1)C1(c2ccccc2)CCCC1	-1.6	44	111	i	0.93	-3	42
COc1cc(C)nc(OCCNS(=O)(=O)c2cc(C)ccc2C)n1	-0.8	19	35	i	0.97	-6	107
Cc1ccc(-c2nn(C)c(=O)c3ccccc23)cc1CNC(=O)Cn1nc(-c2ccccc2)c2ccccc2c1=O	-0.6	14	131	nt	nt	-9	99
COc1cccc(C(=O)N2CCN(C(=O)c3cccc(F)c3)CC2)c1	-2.8	-25	93	i	1	1	103
CCn1c(N2CCN(CC(=O)c3c[nH]c4ccccc34)CC2)nc2c1c(=O)[nH]c(=O)n2C	-1.7	12	83	nt	nt	5	92
CCNC(=O)C(CC(C)C)NC(=O)C(CO)NC(=O)C1CCC(=O)N1 (stereo unspecified)	nt	nt	nt	i	0.95	nt	103
COc1cc(Nc2nc(-c3ccccc3)c3cc(C)ccc3n2)cc(OC)c1OC	-2.3	nt	nt	nt	nt	5	88
COc1cc2nc(=S)n3[nH]c(CCn4nc(C)cc4C)nc3c2cc1OC	-0.4	nt	nt	i	0.96	1	97
O=C(Cc1ccccc1)c1c[nH]c(C(=O)NCCCN2CCOCC2)c1	nt	nt	nt	i	0.83	-2	101
CCSc1nnc(Nc2ccc(C)cc2)s1	-0.3	-3	240	i	0.88	-16	95
Cc1ccsc1/C=C1/SC(N2CC(C)OC(C)C2)=NC1=O (stereo unspecified)	-0.4	14	111	i	1	1	104
Nc1nc(-c2cccs2)cs1	-1.7	-23	110	i	0.99	0	105
COc1ccc(/C(=C/c2ccc(OC(F)F)c(OC)c2)C(=O)O)cc1OC	0.1	7	105	i	0.97	12	96
Cc1cc(Cl)c(S(=O)(=O)NC(C(=O)O)c2ccccc2)cc1OCC(N)=O (stereo unspecified)	-1.8	62	126	i	1.1	1	93
CC(C)c1ccccc1NC(=O)CC1(CC(=O)O)CCCC1	nt	nt	nt	i	0.9	nt	94
COc1ccccc1-n1cnnc1SCC(=O)NCC1CCCO1 (stereo unspecified)	nt	nt	nt	i	0.99	-2	99
CCN(CC)S(=O)(=O)c1cc(NS(=O)(=O)c2ccccc2)ccc1C	-0.5	-15	125	i	0.95	-18	105
c1ccc(-c2nc3nonc3c3nc4ccccc4n23)cc1	-0.2	nt	nt	i	0.98	-1	102
Cc1cccn2c(=O)c(/C=C(\C#N)C(=O)NCc3ccco3)c(N3CCCCCC3)nc12	nt	nt	nt	i	0.88	nt	102
COc1ccc(OC)c(C2/C(=C(/O)c3ccc(C)cc3)C(=O)C(=O)N2Cc2ccco2)c1 (stereo unspecified)	-2.1	nt	nt	i	0.99	-9	103
Cc1nc2ccccc2nc1OCC(=O)NCC(F)(F)F	-0.4	12	82	i	1	5	135
CN1CCN(/N=C/c2nc(-c3ccc(Cl)cc3)n3ccccc23)CC1	-1.7	-6	77	i	1.1	-8	119
CCOc1ccc(NC(=O)CN(C)C(=O)C2CCCC2)cc1OCC	nt	nt	nt	i	1	1	100
CC1CCCN(C(=O)C(Cc2ccccc2)n2cccc2)C1 (stereo unspecified)	-3.4	nt	nt	i	1.1	-10	106
CC(C)OC(=O)COc1cc(O)c2c(=O)cc(-c3ccccc3)oc2c1	nt	nt	nt	i	1.1	nt	103
Cc1cccc(N2CCN(C(=O)c3cccn4c(=O)c5c(C)c(C)sc5nc34)CC2)c1C	-0.5	-4	87	i	0.92	-6	94
Cc1nn(C)c(C)c1C1Nc2ccccc2C(=O)N1O (stereo unspecified)	-2.2	0	107	i	0.89	2	104
NC(=O)c1ccc(NC(=O)COC(=O)C2CC(=O)N(Cc3ccccc3)C2)cc1 (stereo unspecified)	nt	-14	112	i	0.87	0	106
Cc1cccc2sc(NC(=O)CSCc3ccccc3)nc12	3.1	nt	nt	i	0.84	8	102
Cc1cccc(/C(N)=N/OC(=O)COc2ccc(Cl)cc2)c1	nt	nt	nt	i	1.1	0	81
CN(C(=O)CSc1ncnc2scc(-c3ccccc3)c12)C1CCS(=O)(=O)C1 (stereo unspecified)	nt	-100	120	i	1.1	-2	100
NC(=O)COC(=O)c1ccccc1OCc1ccccc1	nt	-14	104	i	0.93	-1	104
CC(C)(C)NC(=O)CSc1nc(N)cc(=O)[nH]1	nt	nt	nt	i	1	-3	92
O=C(CN1CCOCC1)Nc1ncccn1	0.3	34	68	i	1.1	-11	110
COc1ccc(Cl)cc1NC(=O)CSc1nnc(Cc2cccn2C)n1-c1ccc(F)cc1	-0.8	nt	nt	i	0.89	-6	93
CCOC(=O)c1ccc2ncc(C(=O)OCC)c(NCCN(C)C)c2c1	-2.3	nt	nt	i	1.2	8	nt
COC(=O)CNC(=O)COC(=O)/C=C/c1ccc(F)cc1	nt	18	76	i	0.89	4	105
CC1(C)Cc2cccc(OCC(=O)N3CCN(c4ccc([N+](=O)[O-])cc4)CC3)c2O1	-0.5	23	106	i	0.97	1	136
COc1ccc(/C=C(\CC(=O)O)c2nc3ccccc3o2)cc1	nt	54	101	i	0.88	-5	98
Cc1oc(/N=C/c2ccc3c(c2)OCO3)c(C#N)c1C	-3.2	-14	62	i	0.96	-1	97
CCCCNC(=O)CCn1c(=O)c2ccccc2n(Cc2ccccc2C)c1=O	-1.2	6	125	i	0.86	-4	105
Cc1cccc(C)c1NC(=O)Cn1c(=O)n(CCC(=O)NCc2ccco2)c(=O)c2sccc21	0.5	nt	nt	i	0.95	-9	105
Cc1cc(NC(=O)C2C3C(=O)N(CC4CCCO4)C(C(=O)NCc4ccccc4)C34C=CC2(C)O4)no1 (stereo unspecified)	0.0	-175	80	i	0.89	-7	100
Cc1cc(N2CCCC2)n2nc(C)nc2n1	1.0	37	106	nt	nt	-7	95

Sorted by the number under GALR2 agonist (highest first): 3 from the list above.
| SMILES | GALR2 agonist |
| --- | --- |
| CC1(C)Cc2cccc(OCC(=O)N3CCN(c4ccc([N+](=O)[O-])cc4)CC3)c2O1 | -0.5 |
| Cc1nn(C)c(C)c1C1Nc2ccccc2C(=O)N1O (stereo unspecified) | -2.2 |
| CCOC(=O)c1ccc2ncc(C(=O)OCC)c(NCCN(C)C)c2c1 | -2.3 |

(continued)
smiles	GALR2 agonist	Insulin prom inh	Insulin prom inh cell count	HSV augment	HSV augment primary fold	PKD1 inh	RGS16-Gao
COc1ccc2c(c1)OC13CCN(C)CC1C2C(C(=O)c1ccc(F)cc1)C(=O)N3 (stereo unspecified)	-0.3	-5	74	nt	nt	-6	97
COCCNC(=O)CN(C(=O)Cn1nnc2ccccc21)c1ccccc1C	nt	nt	nt	i	0.94	4	110
Oc1ccc(Cl)cc1C=Nc1ccccc1Br	-0.3	nt	nt	i	1	-7	105
Cc1noc(C)c1CSc1ncnc2ccccc12	-3.1	19	136	i	0.89	-7	97
Cc1cc(C)n2c(Br)c(CN3CCCC(C)C3)nc2n1 (stereo unspecified)	nt	5	121	i	1.3	3	103
Cc1cc2ccccc2c(=O)n1CC(=O)NCC(=O)N(C)C1CCCCC1	-0.7	54	67	i	0.87	-2	93
CCOCN(C(=O)Cn1c(C(C)O)nc2ccccc21)c1c(C)cccc1CC (stereo unspecified)	-2.1	-179	95	i	0.97	-2	98
Cc1ccc2nc(Cl)c(CN(C(=O)c3cnccn3)C3CCCCC3)cc2c1	-0.3	-58	99	i	0.84	-12	111
CCc1ccc(N/C(N)=N/c2nc(CSc3ncccn3)cc(=O)[nH]2)cc1	nt	nt	nt	i	0.95	6	111
O=C(Cc1cccs1)NNC(=S)NC(=O)c1ccc(F)c(F)c1	-1.0	nt	nt	nt	nt	-5	101
CN1CCOc2cc(S(=O)(=O)Nc3ccc(F)cc3)ccc21	-3.4	nt	nt	i	0.88	-3	74
Cc1ccc(NC(=O)c2cc([N+](=O)[O-])ccc2N2CCOCC2)cc1S(=O)(=O)N(C)C	nt	nt	nt	i	0.81	nt	98
COc1ccc(CC(NC(C)=O)C(=O)N2CCN(C(=O)Nc3cccc(Cl)c3)CC2)cc1OC (stereo unspecified)	-1.4	6	102	i	0.86	0	108
COc1cccc(NC(=O)CSc2nc3ccccc3c(=O)n2CCCC(=O)N2CCCC2)c1	-0.9	-39	125	i	0.95	-12	117
COCCCNC(=O)CCC(=O)Nc1ccc2nc(N3CCOCC3)cc(C)c2c1	0.1	15	171	i	0.8	-1	101
COc1ccc(-c2nn(-c3ccccc3)cc2/C=C(\C#N)C(N)=O)cc1[N+](=O)[O-]	nt	-6	135	i	0.83	-1	100
COCCn1c(SCC(=O)N(C)C2CCS(=O)(=O)C2)nc2ccccc2c1=O (stereo unspecified)	nt	nt	nt	i	0.94	-1	96
COc1ccc(-c2ccc(C(C)=O)cc2)cc1[C@H]1[C@@H]2C=CCC[C@@]2(C)C(=O)N1Cc1ccccc1	nt	nt	nt	i	0.92	nt	113
NC12CC3CC(CC(C3)C1)C2	-0.8	0	106	i	0.86	-2	98
O=C(O)CC(NC(=O)OCc1ccccc1)c1ccc(Br)cc1 (stereo unspecified)	-0.5	-4	121	i	0.74	-4	96
COc1ccc(C(=O)Cn2nnc(-c3cccs3)n2)cc1	0.2	16	178	i	0.95	4	110
CC(=O)c1ccc(NC(=O)CSCC(=O)Nc2ccc3ccccc3c2)cc1	-0.8	-14	169	i	1	-5	102
COC(=O)c1cccnc1-n1c(=O)c2cccnc2n(Cc2cccc(OC)c2)c1=O	nt	nt	nt	i	1	4	108
O=C(NCc1ccccn1)c1ccc(CNS(=O)(=O)c2ccc(F)cc2)cc1	-2.1	38	65	i	0.92	-4	106
Cc1nc(N)nc(Nc2ccc(C#N)cc2)c1Br	nt	nt	nt	i	1.1	nt	101
Cc1cc(NC(=O)CCN2C(=O)C3C4CCC(C4)C3C2=O)c(C)cc1Br (stereo unspecified)	-1.8	-7	101	i	0.67	-6	88
COc1cccc(N2CC(=O)Nc3c(oc4nc(-c5ccccc5)cc(C)c34)C2=O)c1	nt	nt	nt	i	0.91	nt	99
O=C(O)Cc1ccc2sc(-c3ccccc3)nc2c1	0.5	28	91	i	1	-11	36
Cc1cc2cc(CN(Cc3cccs3)C(=S)NCc3ccco3)c(=O)[nH]c2cc1C	-1.1	-11	79	i	0.86	-6	91
Cc1cc(C(=O)Nc2nnc(C3CCCCC3)s2)cs1	2.9	25	97	i	0.92	-3	103
CCN(CC)S(=O)(=O)c1ccc2c(c1)N(CC(=O)Nc1cccnc1Cl)C(=O)CO2	nt	14	110	nt	nt	-3	109
Cc1cc(SC#N)cc(C)c1NC(=O)CCl	3.3	nt	nt	i	0.88	7	95
Clc1ccc(-n2ncc3c(NCC4CCCO4)ncnc32)cc1 (stereo unspecified)	0.2	0	139	i	0.75	-8	102
COc1ccc(Cc2noc(CN3CCCC(OCc4ccccn4)C3)n2)cc1OC (stereo unspecified)	nt	nt	nt	i	1	-9	101
Nc1nnc(-c2cn(-c3ccccc3)nc2-c2ccc(Cl)cc2)o1	nt	nt	nt	i	0.68	nt	97
Cc1ccc(CCNC(=O)CN(C)S(=O)(=O)c2cnc[nH]2)cc1	-0.7	-48	97	i	1.1	0	104
CCOC(=O)c1cc2sc(C)cc2n1CC(=O)N(CC)CC	-0.6	-8	83	i	0.88	-3	100
Fc1cc(Br)ccc1NC(=S)Nc1cccnc1	nt	nt	nt	i	0.99	3	101
Cc1cc(Br)ccc1NC(=O)CN1C(=O)CCC1=O	-0.5	8	170	i	0.9	0	96
